TNFa cytotox: cytotoxicity in TNFa-stimulated HUVEC, primary screen, cytotoxicity control for VCAM1 expression modulator project, imaging, Hoechst nuclei count | HUVEC TNFalpha-stimulated, Hoechst cell count | cell count reduction, % at 2 µM | hit rate 0.17% among 93,000;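 active means cell count reduction exceeding the screen mean by over 5 SD, scaled to untreated wells per plate, cut at about 78% in these data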;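 further: cells counted after 24 h of TNF alpha exposure following the 1 h pretreatment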
E coli WT exp: growth inhibitors of wild-type E. coli, primary screen, strain BW25113, expanded library, OD600; AID 710, 2007; OD600 absorbance; growth inhibition, % at 100 µM; hit rate 0.15% among 98,000;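 active means growth inhibition above about 50% at one test dose, limit read from the data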;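 further: growth measured after 20 h incubation at 37 °C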
PLK1 PBD inh: Plk1 polo box domain binding inhibitors, primary screen, biochemical, fluorescence polarization; Plk1 PBD phosphopeptide binding; Serine/threonine-protein kinase PLK1 (Homo sapiens), P53350; hit rate 0.13% among 97,000; inhibition, %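 (tested at about 20 µM)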; in the data active means inhibition above about 34%, passing the limit was not always enough
VCAM1 TNFa inh: inhibitors of TNFa-induced VCAM1 expression, primary screen, imaging, HUVEC, TNFa stimulus, immunofluorescence; HUVEC TNFa-induced VCAM-1 immunofluorescence, high-content imaging; hit rate 0.48% among 95,000; inhibition, % at 2 µM; AID 802, 2007;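 active means inhibition above the batch mean plus 3 SD, with images confirmed as a hit by eye, cut at about 37% in these data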;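 further: 0% = TNF-stimulated DMSO wells and 100% = unstimulated control wells; not every result past the cut was called active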
DAT uptake mod: changed hDAT dopamine uptake under cocaine IC80, either direction, primary screen, cocaine antagonist project, cell-based, LLC-PK1 hDAT, [14C]-dopamine uptake, MLSMR | Sodium-dependent dopamine transporter (Homo sapiens), Q01959 | LLC-PK1 hDAT cells, [14C]-dopamine uptake with cocaine IC80; actives deviate in either direction | B-score at 10 µM | hit rate 1.3% among 110,000 | AID 449768, 2010;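 active means Z score or B-score, a plate-position-corrected score, falls beyond the plate's 99.7% confidence bounds, in either direction; inactive means both scores lie inside the 99.7% bounds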;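 further: scored against the spread of the other compound wells on the same plate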
Target sequence (Q01959 whole entry, looked up): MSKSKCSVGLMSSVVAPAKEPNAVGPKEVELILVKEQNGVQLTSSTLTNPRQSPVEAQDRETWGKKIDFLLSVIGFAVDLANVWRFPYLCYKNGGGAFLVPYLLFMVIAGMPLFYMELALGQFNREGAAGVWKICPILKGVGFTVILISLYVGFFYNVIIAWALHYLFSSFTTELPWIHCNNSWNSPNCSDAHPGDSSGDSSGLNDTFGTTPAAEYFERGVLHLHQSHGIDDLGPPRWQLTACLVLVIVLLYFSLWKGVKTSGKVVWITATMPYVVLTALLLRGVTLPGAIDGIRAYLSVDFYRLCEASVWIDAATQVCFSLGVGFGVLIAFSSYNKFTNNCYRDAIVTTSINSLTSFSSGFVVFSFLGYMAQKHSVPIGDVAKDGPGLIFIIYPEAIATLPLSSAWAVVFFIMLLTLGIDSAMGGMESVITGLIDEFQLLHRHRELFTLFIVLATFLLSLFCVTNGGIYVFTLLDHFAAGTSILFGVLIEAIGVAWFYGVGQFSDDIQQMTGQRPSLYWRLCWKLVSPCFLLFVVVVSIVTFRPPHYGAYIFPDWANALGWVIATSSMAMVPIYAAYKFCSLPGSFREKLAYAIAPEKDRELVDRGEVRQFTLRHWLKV
cytoskel mod: modifiers of F-actin cytoskeleton organization, primary screen, imaging, HUVEC, phalloidin staining, high-content imaging; HUVEC TNFa F-actin phalloidin imaging; inhibition, % at 2 µM; hit rate 0.18% among 91,000; AID 836, 2007;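 active means inhibition above the batch mean plus 3 SD and confirmed as a hit by visual image inspection, cut at about 30% in these data, passing the limit was not always enough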; further: strong numbers were not always called active
IL1B cytotox: cytotoxicity in IL-1B stimulated HUVEC, primary screen, cytotoxicity control for IL-1B NFkB translocation project, imaging, Hoechst nuclear count, IL-1B stimulus; HUVEC cell count loss; cell count reduction, % at 2 µM; hit rate 0.41% among 94,000; AID 845, 2007;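 active means cell count reduction more than 3 SD above the screen-wide mean, cut at about 70% in these data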;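 further: normalized per plate to untreated control cells as the no-loss baseline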
PLK1 inh: human PLK1 kinase inhibitors, primary screen, biochemical, TR-FRET; AID 619, 2007; inhibition, % at 10 µM; hit rate 0.53% among 97,000; Serine/threonine-protein kinase PLK1 (Homo sapiens), P53350; recombinant PLK1 kinase, TR-FRET peptide phosphorylation;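 active means inhibition of 50% or more in the single-concentration screen; inactive means inhibition below 50%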;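 further: 0% = DMSO max control and 100% = H-89 dihydrochloride min control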
* hit, by the source's call; / = no result given. An excerpt; count on the stated rates, not on these rows.

SMILES	TNFa cytotox	E coli WT exp	PLK1 PBD inh	VCAM1 TNFa inh	DAT uptake mod	cytoskel mod	IL1B cytotox	PLK1 inh
COc1ccccc1NC(=O)C1=C(C)Nc2nnnn2C1c1cccc(C)c1 (stereo not given)	-41	0	7	3	0.95	9	-1	-2
CCN1CCN(c2cc(-c3ccccc3)nc3cc(-c4cccc(F)c4)nn23)CC1	-33	/	-9	-1	1.1	-3	-33	-6
CC(NC(=O)CCc1ccc(S(=O)(=O)NC2CCCCC2)cc1)c1ccccc1 (stereo not given)	14	0	-7	-16	-0.11	1	5	-2
FC(F)(F)c1cc(-c2ccc(Cl)cc2)nc(NCc2cccnc2)n1	-20	0	1	-4	-0.065	-6	-12	2
CCOC(=O)N1CCN(C(=O)CN(c2ccc(C)cc2)S(=O)(=O)c2c(C)noc2C)CC1	-2	-1	-8	0	-0.031	-6	-8	-3
CCn1c(CCNC(=O)c2ccc(Cl)cc2)nnc1SCC(=O)NC1CCCC1	-3	3	0	10	0.37	-1	8	10
COc1cc(NC(=O)c2ccc(Br)o2)ccc1NC(=O)C(C)C	-18	-6	4	-1	0.83	8	38	-12
CCOc1ccc(NC(=O)CS(=O)CC(=O)NC2CCCc3ccccc32)cc1 (stereo not given)	5	-9	22	33	-0.82	16	-38	-7
Cc1cc(C(=O)NCCCn2ccnc2)sc1-c1ccccc1	-9	24	0	2	1.2	-1	4	-5
O=C(CCn1nnc2ccccc2c1=O)NCC1CCC(C(=O)O)CC1 (stereo not given)	/	5	-6	/	-0.011	13	-25	-10
COc1ccc(OCC(=O)Nc2cccc(NC(=O)COc3ccc(OC)cc3)n2)cc1	-25	-15	6	-2	-0.098	19	-8	-9
O=C1Nc2c(c(=O)[nH]c(=O)n2-c2ccccc2)C(C(F)(F)F)(C(F)(F)F)N1	-4	-10	-6	-4	1.6	-28	13	-5
CCOC(=O)CSc1ccc2nnc(-c3cccnc3)n2n1	37	4	-11	8	-0.89	-10	15	-12
CCCCn1nnnc1NCc1cccnc1	/	6	13	/	-0.004	/	-24	-5
Cc1cc(C)c(-c2noc(C(=O)OC(C)(C)C)c2C(=O)OC(C)(C)C)c(C)c1	-7	10	-12	-4	-1.4	18	/	-11
O=C(NC1CCCCC1)C1CC(=O)N(CCc2ccccc2)C1 (stereo not given)	-8	0	21	25	-0.21	9	4	-12
CCOc1ccccc1NC(=O)C1CCCCN1S(=O)(=O)c1ccc(F)cc1 (stereo not given)	-24	-4	0	2	-1.2	-5	-15	-22
Cc1cc(C)cc(N(CC(=O)N2CCN(Cc3ccccc3)CC2)S(=O)(=O)c2c(C)noc2C)c1	-22	-2	10	7	-0.99	-3	-13	-11
COc1ccc(/C=N/NC(=O)c2cccc([N+](=O)[O-])c2)cc1OC(=O)c1ccccc1	-14	-18	16	23	-0.033	-11	-3	-9
COc1cccc(OCC(=O)Nc2ccccc2C(N)=O)c1	4	3	11	5	-1.4	-8	42	-12
COc1ccc(N(CC(=O)N2CCN(c3ccccc3)CC2)S(=O)(=O)c2c(C)noc2C)cc1	-22	-7	-17	20	0.58	1	8	-23
CCOC(=O)c1cc2ccc3ccccc3c2s1	-4	/	21	5	0.014	3	-24	-14
O=C(O)C1CC=CCC1C(=O)NCc1cn2ccccc2n1 (stereo not given)	-11	3	-4	7	1.2	-23	-9	-8
NC(=O)c1cc(-c2ccccc2)sc1NC(=O)Cc1ccc(S(=O)(=O)N2CCOCC2)s1	-13	-9	-31	-13	0.37	-6	-8	-5
CCCc1cc(C(N)=O)c(NC(C)=O)s1	-27	5	-16	-31	0.47	-1	-7	16
CN(c1ccc(C(=O)Nc2ccc3c(c2)OCCO3)cc1)S(C)(=O)=O	-9	3	-9	-4	-0.63	11	-82	-10
Cc1ccccc1N(CC(=O)N/N=C/c1ccc(F)cc1)C(=O)c1ccccc1	-8	-4	-10	-2	1.3	2	-2	-16
CC/C(=N\NC(=O)c1ccc2c(c1)OCO2)C12CC3CC(CC(C3)C1)C2	9	-7	4	10	0.74	-10	3	-10
CCOC(=O)/C(C#N)=C/C1=C(N2CCCC2)CC(C)(CC)OC1 (stereo not given)	5	-13	5	22	-0.97	-6	6	-36
Cc1ccc(NC2SC(=O)N(CC(=O)O)C2=O)cc1 (stereo not given)	2	6	20	12	0.032	1	-12	-6
CCOC(=O)c1ccc(NC(=O)C2(c3ccc(OC)cc3)CCCC2)cc1	-13	-1	-4	5	-0.81	0	-2	-5
CCOC(=O)c1csc(NC(=O)c2ccc(S(=O)(=O)N(CC)CC)cc2)n1	-36	/	-12	-1	0.021	16	36	-10
O=C(NC1CCN(C(=S)NCc2ccco2)CC1)NC12CC3CC(CC(C3)C1)C2	3	-6	24	9	0.24	-16	6	-3
O=C(COC(=O)C12CC3CC(CC(C3)C1)C2)NCCc1ccccc1	12	2	-1	0	1	-22	0	-15
COc1ccc(C(C#N)Nc2ccccc2C)cc1 (stereo not given)	62	5	10	12	0.022	10	-7	-9
CC1(C)CC(=O)C(C=NCC2CCN(C(=O)Nc3ccc(Cl)c(Cl)c3)CC2)=C(O)C1	-9	-8	-9	3	-0.54	9	-6	2
Cn1c(=O)c2c(nc(NCCc3ccccc3)n2Cc2ccc(F)cc2)n(C)c1=O	-2	-2	21	-2	0.41	-7	8	-9
O=C(Nc1ccncc1)c1ccccc1F	2	1	12	-1	-0.13	-17	10	23
COc1ccccc1-n1c(-c2ccc(NS(C)(=O)=O)cc2)n[nH]c1=S	3	1	-8	-2	0.83	-15	-69	5
CC(=O)NC(Cc1ccc(F)cc1)C(=O)NC1CCN(c2nnnn2-c2ccccc2)CC1 (stereo not given)	-3	0	15	2	0.076	-14	0	-17
Cn1nccc1C(=O)NC(=S)Nc1sc2c(c1C#N)CCCCC2	-21	-24	-2	-10	0.42	-15	-35	0
CN(C)c1ccc(-c2noc(C3CCN(S(=O)(=O)c4ccc(C(=O)O)cc4)CC3)n2)cc1	-13	/	0	-10	0.0015	15	13	-7
COc1cc(OC)cc(C(=O)N[C@H](C(=O)OCC(=O)c2ccc3c(c2)NC(=O)CO3)C(C)C)c1	-15	4	13	-7	0.089	4	-9	-8
CC1(C)Cc2ccccc2C(/C(=N/O)C(N)=O)=N1	-4	-1	5	-20	-0.2	21	-23	-5
CN(C)c1ccc(/C=N/NC(=O)CN(c2ccccc2Cl)S(C)(=O)=O)cc1Br	5	-4	13	-2	-0.081	-21	-15	-3
COc1ccc(C(=O)O/N=C(/C)c2cccs2)cc1	-6	2	-2	18	-0.023	-8	17	-6
Cc1cccc(NC(=O)CN2C(=O)CNC2=O)c1	-24	1	-3	7	-1.5	4	-45	5
CCCc1nc2ccccc2n2cc3c(=O)n(C)c(=O)n(C)c3c12	-15	/	10	10	/	0	-21	12
O=C(NC12CC3CC(CC(C3)C1)C2)N1CCN(c2nc(-c3ccccc3)cs2)CC1	15	-5	-10	3	/	-26	-3	-12
COCC(C)NC(=O)CCSc1nc(-c2ccc(OC)cc2)cc(C(F)(F)F)n1 (stereo not given)	-37	/	8	17	0.72	1	5	-11
Cc1ccc(S(=O)(=O)N[C@H](C(=O)N2CCC(C(=O)N3CCC[C@H]3C(=O)O)CC2)C(C)C)cc1	-19	4	-17	5	-2	2	-23	-3
COc1cc(-c2ccc(NC(=O)CN3CCCCC3)c(OC)c2)ccc1NC(=O)CN1CCCCC1	5	/	-4	12	/	2	8	-8
O=C(Cn1nc(-c2ccccc2)nc1-c1ccccc1)OC1CCCCC1	-5	/	-16	-2	1.1	8	-28	-11
Cc1cc(OCc2nc(-c3ccc(NC(=O)c4cccnc4)cc3)no2)ccc1Cl	-17	-1	-5	6	0.0069	20	1	-12
CCOC(=O)COc1ccc(S(=O)(=O)NCC2CCCO2)cc1 (stereo not given)	/	/	2	/	0.039	/	-37	-18
Cc1cc(NS(=O)(=O)c2ccc(NC(=O)C(c3ccccc3)c3ccccc3)cc2)no1	/	5	2	-4	1.6	4	8	-17
Cc1ccccc1CS(=O)(=O)Cc1ccc(C(=O)NCCCN2CCOCC2)o1	/	-2	-9	/	/	/	1	-6
O=c1cc(-c2ccccc2)nc2n1Cc1ccccc1-2	6	-5	-11	0	-0.36	0	10	-31
CC(C)c1ccc(NC(=O)COC(=O)C2=COCCO2)cc1	-7	10	8	-4	0.25	-13	-10	-9
COc1c(C)cccc1C(=O)NC(=S)Nc1ccc2c(c1)Cc1ccccc1-2	1	-9	4	0	/	-11	-1	-17

Further structures follow.
SMILES	TNFa cytotox	E coli WT exp	PLK1 PBD inh	VCAM1 TNFa inh	DAT uptake mod	cytoskel mod	IL1B cytotox	PLK1 inh
COc1cc(S(=O)(=O)N2CCCCC2)ccc1NC(=O)/C=C/c1ccccc1	-13	-22	-9	10	1.3	20	5	-16
O=C(CSc1nnc2c3c4c(sc3ncn12)CCCC4)NCc1ccco1	-12	-3	4	2	-0.62	-17	-53	-5
Cc1cc2n(n1)C(c1cccs1)Nc1ccccc1-2 (stereo not given)	-2	12	-10	-12	0.97	-7	-15	-7
Cc1ccc(C(=O)NCCCn2ccnc2)o1	-14	4	-11	6	-0.62	2	24	-13
Cc1cc(NS(=O)(=O)c2ccc(NC(=O)CCCOc3ccccc3)cc2)no1	1	0	-16	7	0.65	-21	9	1
CCOc1ccc(C2/C(=C(/O)c3ccc(F)cc3)C(=O)C(=O)N2CCCN(C)C)cc1 (stereo not given)	-11	5	-10	-4	0.0021	14	-8	-3
O=C(CCSc1nc(-c2ccc3c(c2)OCO3)cc(C(F)(F)F)n1)NCc1ccco1	-4	-1	-13	8	-1.1	-2	-60	-23
O=C(CSCc1ccc(F)cc1)N1CCN(c2ccccc2)CC1	-6	12	2	15	-0.24	-18	7	-8
CCOC(=O)Cc1csc(NC(=O)c2ccc(Br)o2)n1	-31	4	23	-9	0.019	13	-133	3
O=S(=O)(NC1CCCCC1NCc1ccco1)c1ccccc1 (stereo not given)	-13	0	-17	24	-0.18	-11	-18	-6
O=C(Nc1ccc(Cl)cc1)NC1CCCC1Cc1ccco1 (stereo not given)	-2	23	43	8	-5.7*	-38	-24	-13
COc1ccc(Cl)cc1N(CC(=O)Nc1ccccc1C(=O)NCc1ccco1)S(C)(=O)=O	-23	2	17	26	0.0096	2	-31	-11
CC(CC(=O)Nc1nc2ccccc2[nH]1)c1ccccc1 (stereo not given)	-6	-4	9	-16	-0.88	10	1	-12
O=C(NC1CCCCC1)c1cccc(S(=O)(=O)N2CCOCC2)c1	12	-7	-18	-2	-0.64	-15	29	-11
CCn1c(COc2ccc(C)cc2)nnc1SCC(=O)Nc1ccc(S(N)(=O)=O)cc1	-106	-3	1	25	0.64	-1	-1	-19

6 compounds drawn at random from the list so far, as already listed:
SMILES	TNFa cytotox	E coli WT exp	PLK1 PBD inh	VCAM1 TNFa inh	DAT uptake mod	cytoskel mod	IL1B cytotox	PLK1 inh
O=C(Nc1ccc(Cl)cc1)NC1CCCC1Cc1ccco1 (stereo not given)	-2	23	43	8	-5.7*	-38	-24	-13
O=C(CSc1nnc2c3c4c(sc3ncn12)CCCC4)NCc1ccco1	-12	-3	4	2	-0.62	-17	-53	-5
O=C(CSCc1ccc(F)cc1)N1CCN(c2ccccc2)CC1	-6	12	2	15	-0.24	-18	7	-8
O=C(NC1CCCCC1)c1cccc(S(=O)(=O)N2CCOCC2)c1	12	-7	-18	-2	-0.64	-15	29	-11
O=S(=O)(NC1CCCCC1NCc1ccco1)c1ccccc1 (stereo not given)	-13	0	-17	24	-0.18	-11	-18	-6
COc1cc(S(=O)(=O)N2CCCCC2)ccc1NC(=O)/C=C/c1ccccc1	-13	-22	-9	10	1.3	20	5	-16

From PubChem BioAssay
